# Screens deposited in PubChem BioAssay by National Center for Advancing Translational Sciences (NCATS).
# Cruzain noTriton – blocks cruzain activity in detergent-free assay; purified cruzain, Z-FR-AMC fluorescence, no detergent; Potency, µM, inactives show max response, negative = inhibition, usual class: inhibitors; actives 2.3% (n = 200,000); AID 1476;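 further: plate controls were enzyme without inhibitor for no effect and buffer without enzyme for full effect; nearly all actives have a fitted effect of over 40% in size; top concentration of the series not given in the record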
# Target sequence (P25779 123-467 limits assumed): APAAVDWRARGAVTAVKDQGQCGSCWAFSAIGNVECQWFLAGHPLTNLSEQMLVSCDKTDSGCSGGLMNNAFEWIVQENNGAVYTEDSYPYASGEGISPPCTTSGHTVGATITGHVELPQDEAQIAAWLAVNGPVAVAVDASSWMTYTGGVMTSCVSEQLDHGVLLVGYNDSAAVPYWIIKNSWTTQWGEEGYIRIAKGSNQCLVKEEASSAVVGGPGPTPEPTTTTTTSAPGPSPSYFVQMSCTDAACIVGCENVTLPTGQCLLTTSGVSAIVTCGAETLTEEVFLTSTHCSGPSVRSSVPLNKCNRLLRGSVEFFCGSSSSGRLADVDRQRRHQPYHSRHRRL
#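 Purified cruzain at 1.5 nM, pre-incubated 15 min with compound at room temperature in 100 mM sodium acetate pH 5.5, 5 mM DTT, 0.00005% Triton X-100. Reaction started with 2 uM Z-FR-AMC; AMC fluorescence increase over 60 s gives rate.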
# NS1 inh – inhibitors of influenza NS1 protein function; S. cerevisiae slowed by influenza A NS1, growth recovery by OD600; Potency, µM (titrated, usually from 46.1 µM), without a hit: at the top dose activity, positive = more growth; actives 0.4% (n = 270,000); AID 2326; active means well fitted rising curve with a large enough effect; inconclusive means small, poorly fitted or top-dose-only effect; inactive means no such curve, though single readings can be large or run the other way; further: nearly all actives have a fitted effect of over 50% in size
#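 In this qHTS, NS1 from influenza A is expressed in budding yeast, where it slows growth. Cells are switched from glucose to 2% galactose medium (pH 6.0, -URA), treated with compound, and growth recovery is read at OD600.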
# LASV entry inh – blocks Lassa virus binding to or entry into cells. Lassa virus pseudotype entry inhibition, cell reporter; control for the full effect not named in the record. Potency, µM (titrated, usually from 37.9 µM), for inactives: at the top dose activity change, negative = inhibition, usual class: inhibitors. actives 1.2% (n = 300,000). AID 540256; active means well fitted inhibition curve with a large enough effect; inconclusive means small, poorly fitted or top-dose-only effect, or effect the other way; inactive means flat fitted curve, though single readings scatter; tested in HEK293 cells; further: on the % scale 0 is the no-effect control and ±100 the full control effect; nearly all actives have a fitted effect of over 50% in size; luciferase read-out
# RE007 growth inh – less growth of the S. pombe RE007 Vpr strain; AID 651644; S. pombe RE007 Vpr strain, BacTiter-Glo ATP luminescence, 24 h; control for the full effect not named in the record; actives 0.21% (n = 360,000); Potency, µM (doses to about 92.2 µM), without a hit: at the highest dose activity change, negative = less growth; active = well fitted falling curve with a large enough effect; inconclusive = small, poorly fitted or top-dose-only effect; inactive = no such curve, though single readings can be large or run the other way;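 further: on the % scale 0 is the no-effect control and ±100 the full control effect; nearly all actives have a fitted effect of over 50% in size; the assay follows cell death caused by Vpr and the record does not say whether a fall means rescue or toxicity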
#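 Fission yeast RE007 carrying one integrated HIV-1 vpr copy, seeded at OD 0.01 in PMG+AL medium with 23 nL pinned compound. Grown 24 h at 30 degrees; viability read by BacTiter-Glo luminescence after 5 min.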
# SARS PLpro yeast – SARS-CoV PLP inhibition in yeast; actives 0.19% (n = 330,000); Potency, µM (series often up to 32.9 µM), for the others: at the highest dose activity, positive = growth rescue; S. cerevisiae expressing SARS-CoV PLpro, growth rescue; control for the full effect not named in the record; active means well fitted rising curve with a large enough effect; inconclusive means small, poorly fitted or top-dose-only effect; inactive means no such curve, though single readings can be large or run the other way; further: 0% is about no effect; nearly all actives have a fitted effect of over 55% in size; growth read by luminescence after 48 h
# Cruzain Triton – inhibitors of Trypanosoma cruzi cruzain with detergent; actives 0.43% (n = 200,000); Potency, µM, for inactives: max response, negative = inhibition, actives largely listed as inhibitors; P25779; purified cruzain, Z-FR-AMC fluorescence, 0.01% Triton;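 further: plate controls were neutral wells for no effect and buffer without enzyme for full effect; nearly all actives have a fitted effect of over 40% in size; top concentration of the series not given in the record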
#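 Cruzain (1.5 nM) preincubated 15 min at RT with compound in 100 mM sodium acetate pH 5.5, 5 mM DTT, 0.01% Triton X-100. Reaction started with 2 uM Z-FR-AMC; AMC fluorescence (ex 360/em 450 nm) change over 60 s gave rate.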
# MARV entry inh – inhibitors of Marburg virus binding or cell entry; Potency, µM (titrated, usually from 37.8 µM), for the others: top-dose activity change, negative = inhibition, hits mostly inhibitors; actives 1.8% (n = 300,000); AID 540276; Marburg virus pseudotyped entry inhibition, cell reporter; control for the full effect not named in the record; about a third of the inactives were read at about 46 µM; active = well fitted inhibition curve with a large enough effect; inconclusive = small, poorly fitted or top-dose-only effect, or effect the other way; inactive = flat fitted curve, though single readings scatter; tested in HEK293 cells; about a fifth of its hits are not listed in these tables; further: on the % scale 0 is the no-effect control and ±100 the full control effect; luciferase read-out
# 2A StopGo – lowers the luciferase signal of an FMDV 2A StopGo reporter | human cells with a luciferase reporter of 2A StopGo recoding; control for the full effect not named in the record | Potency, µM (doses to about 57.9 µM), without a hit: at the highest dose signal change, negative = less light | actives 1.2% (n = 410,000); active = well fitted falling curve with a large enough effect; inconclusive = small, poorly fitted or top-dose-only effect; inactive = no such curve, though single readings can be large or run the other way; tested in HEK293T cells; further: on the % scale 0 is the no-effect control and ±100 the full control effect; nearly all actives have a fitted effect of over 45% in size; luciferase light after 4 h
# Numbers without * were called inactive; u = inconclusive; x = no result given; & = joins results of further samples; [ ] = another dose, or the depositor's remark. Unless noted, the call rests on the fitted dose curve; in most records, active means well fitted curve in the direction sought with a large enough effect; inconclusive means small, poorly fitted or top-dose-only effect, or another doubt; inactive means no such curve, though single readings can be large; an effect the other way counts as inactive or inconclusive. Potency means the concentration at half of the fitted maximal effect.
(1) COc1ccc(NC(=O)CCCN2C(=O)C(c3ccccc3)Oc3cccnc32)cc1OC (stereo unspecified)
(2) O=C1NCCN(Cc2cccc(Oc3ccccc3)c2)C1CC(=O)N1CCCCO1 (stereo unspecified)
(3) C/C(=N\NC(=O)C(NC(=O)c1ccccc1)C(C)C)c1ccccc1 (stereo unspecified)
(4) CCOCCCNC(=O)C1CCN(Cc2ccc(OCc3ccccc3)c(OC)c2)CC1
(5) Cc1c(Cl)cccc1-n1ncc(C(=O)N2CCc3ccccc3C2)c1C1CCN(C(=O)OC(C)(C)C)CC1
(6) Cc1nn(-c2ncc(C(F)(F)F)cc2Cl)c(=O)n1-c1ccccc1
(7) Cc1cc(C)nc(Nc2n[nH]c(-c3cccc4ccccc34)n2)n1
(8) COCCN(C(=O)COC(=O)c1sccc1C)c1c(N)n(Cc2ccccc2)c(=O)[nH]c1=O
entry no.,1,2,3,4,5,6,7,8
Cruzain noTriton,u,x,2%,x,-6%,-2%,u,x
NS1 inh,-8%,-3%,4%,-17%,x,-8%,10%,0%
LASV entry inh,6%&-8%[46.1 µM],x,2%,x,u,u,x,3%
RE007 growth inh,1%,4%,9%,7%,x,25%,x,20%
SARS PLpro yeast,1%,1%,4%,5%,x,-2%,2%,-2%
Cruzain Triton,-6.0%,x,4.3%,x,-0.8%,0.0%,0.6%,x
MARV entry inh,5%&5%[46.1 µM],x,14%,x,x,3%[46.1 µM],-2%,5%
2A StopGo,u,0%,-7%,2%,u,18%,37%[activator],-11%

(9) Cc1cccc(-n2nc(C)cc2N)c1
(10) Nc1nc(SCC(=O)N2N=C3/C(=C\c4ccco4)CCCC3C2c2ccco2)n[nH]1 (stereo unspecified)
(11) COc1ccc(CCNC(=O)Nc2ccc([N+](=O)[O-])cc2)cc1OC
(12) Cc1cccc(C)c1N1CC(=O)N(c2c(C)cccc2C)CC1=O
(13) CCCOC(=S)NC(=O)c1sc2ccccc2c1Cl
(14) CCOC(=O)/C=C/CN(C(=O)OC(C)(C)C)S(=O)(=O)N1CC=CC1
(15) O=S(=O)(c1ccccc1)N1CCN(S(=O)(=O)c2ccccc2)c2ccccc21
(16) O=c1[nH]c2c(c3c1CCCC3)CCCC2
entry no.,9,10,11,12,13,14,15,16
Cruzain noTriton,-4%,x,x,-12%,8%,x,-7%,-1%
NS1 inh,12%,x,x,12%,-37%,4%,0%,0%
LASV entry inh,-1%,-13%[46.1 µM],15%[46.1 µM],u,-1%,x,-6%[46.1 µM],11%
RE007 growth inh,-4%,-9%,-2%,-3%,-10%,-5%,-16%,-18%
SARS PLpro yeast,3%,x,-1%,-3%,-3%,1%,x,1%
Cruzain Triton,3.6%,x,x,2.5%,-2.9%,x,-5.5%,-2.9%
MARV entry inh,4%,u,u,5%,-8%,x,6%,-14%
2A StopGo,13%,-2%,u,2%,47%[activator],-12%,-6%,x

(17) O=C(NCCCN1CCOCC1)c1ccc2c(c1)N(Cc1ccccc1F)C(=O)c1ccccc1S2=O (stereo unspecified)
(18) COc1cc(C2C(C(=O)c3ccc(C)o3)=C(O)C(=O)N2Cc2ccccc2)ccc1O (stereo unspecified)
(19) CC(C)[C@H](NC(=O)C1CCN(S(=O)(=O)c2ccc(F)cc2)CC1)C(=O)N1CCCCCC1
(20) COC(=O)c1cnn2c(C)c(Cc3c(C)cc(C)cc3C)c(C)nc12
(21) CC(C)(C)N(Cc1ccccc1)C(=O)CN1C(=O)c2ccccc2S1(=O)=O
(22) Cc1ccc(S(=O)(=O)Nc2nc(C)cc(N/N=C/c3ccc(O)cc3)n2)cc1
(23) CCc1ccc(NC(=O)Cn2ncc3c(C)n(Cc4cccc(Cl)c4)c(C)c3c2=O)cc1
(24) CC(C)N1CC(C(=O)Nc2ccc(Cl)c(Cl)c2)CC1=O (stereo unspecified)
entry no.,17,18,19,20,21,22,23,24
Cruzain noTriton,x,x,x,23%,x,6%,4%,x
NS1 inh,-2%,x,-13%,x,x,-2%,x,-10%
LASV entry inh,u,1%,x,21%[46.1 µM],-6%,x,u,-18%[46.1 µM]
RE007 growth inh,-15%,4%,12%,x,1%,9%,x,-4%
SARS PLpro yeast,6%,0%,0%,x,-17%,-16%,x,5%
Cruzain Triton,x,x,x,-0.1%,x,-7.8%,-0.9%,x
MARV entry inh,u,24%[46.1 µM],x,x,-11%,x,u,-15%[46.1 µM]
2A StopGo,18%,4%,-29%,-9%,-22%,43%[activator],-4%,-2%

(25) Cc1ccc(C)c(NC(=O)CSc2nnc3n2CCCCC3)c1
(26) CC1Cc2cc(S(=O)(=O)NCCC(=O)NCc3ccc(F)cc3)ccc2N1C(=O)C1CC1 (stereo unspecified)
(27) CCCOC(=O)c1ccc(NC(=O)c2c(Cl)ccc(Cl)c2OC)cc1
(28) CCOc1ccc(OCC)c(S(=O)(=O)NCc2ccccc2)c1
(29) O=C(CN1C(=O)c2ccccc2S1(=O)=O)NCc1cccs1
(30) CCCNC(=O)CS(=O)(=O)Cc1nc(-c2ccccc2C)oc1C
(31) Cc1cc(-c2ccccc2)nc2cc(C(=O)Nc3ccc(Cl)c(Cl)c3)nn12
(32) COc1cc(/C=N/NC(=O)c2cccnc2)ccc1OS(=O)(=O)c1cc(C)ccc1C
entry no.,25,26,27,28,29,30,31,32
Cruzain noTriton,2%,x,10%,x,x,5%,4%,u
NS1 inh,-9%,-9%,-22%,-8%,-1%,-21%,x,11%
LASV entry inh,x,x,u,-17%[46.1 µM],x,x,9%[46.1 µM],u
RE007 growth inh,-6%,15%,-11%,-24%,8%,0%,x,2%
SARS PLpro yeast,1%,-6%,-60%,3%,3%,1%,x,-6%
Cruzain Triton,-1.5%,x,-10%,x,x,1.0%,-3.1%,-3.4%
MARV entry inh,x,x,u,-24%[46.1 µM],x,x,x,u
2A StopGo,6%,-9%,0%,27%,3%,-13%,u,u

(33) COc1cc(CN(C(=O)COc2ccc(F)cc2)c2ccccn2)cc(OC)c1OC
(34) CCOc1ccc(-c2cccc(NS(=O)(=O)c3cc([N+](=O)[O-])ccc3C)c2)nn1
(35) CN1CCN(c2oc(-c3ccco3)nc2S(=O)(=O)c2ccccc2)CC1
(36) CC1Cc2ccccc2N1CC(=O)Nc1ccc(Cl)c(S(=O)(=O)N(C)C)c1 (stereo unspecified)
(37) N#Cc1c(C(F)(F)F)cc(-c2cccs2)nc1SCC(=O)Nc1cccc(Br)c1
(38) CCOC(=O)N1CCN(C(=O)c2cc(S(=O)(=O)N3CCCC3)cn2C)CC1
(39) Cc1ccc2c(c1)C1CN(C)CCC1N2C(=O)c1ccccc1NS(=O)(=O)c1ccc(F)cc1 (stereo unspecified)
(40) CC(C)CN(CC(C)C)C(=O)C12CCC(C)(C(=O)C1)C2(C)C (stereo unspecified)
entry no.,33,34,35,36,37,38,39,40
Cruzain noTriton,-1%,x,0%,x,-15%,8%,-10%,-1%
NS1 inh,x,x,4%,x,x,-8%,-8%,-4%
LASV entry inh,-15%[46.1 µM],3%,11%,-10%,1%[46.1 µM],0%,17%,6%
RE007 growth inh,x,5%,12%,-2%,x,-6%,-2%,5%
SARS PLpro yeast,x,-11%,-4%,-2%,x,2%,-6%,u
Cruzain Triton,1.2%,x,0.1%,x,-5.3%,7.6%,-1.0%,6.0%
MARV entry inh,-5%[46.1 µM],-3%,19%[46.1 µM],-17%,-20%[46.1 µM],19%,u,-25%
2A StopGo,-9%,48%[activator],-9%,10%,0%,9%,-16%,0%

# Pulled one by one from above, six records:
(39) Cc1ccc2c(c1)C1CN(C)CCC1N2C(=O)c1ccccc1NS(=O)(=O)c1ccc(F)cc1 (stereo unspecified)
(33) COc1cc(CN(C(=O)COc2ccc(F)cc2)c2ccccn2)cc(OC)c1OC
(35) CN1CCN(c2oc(-c3ccco3)nc2S(=O)(=O)c2ccccc2)CC1
(40) CC(C)CN(CC(C)C)C(=O)C12CCC(C)(C(=O)C1)C2(C)C (stereo unspecified)
(38) CCOC(=O)N1CCN(C(=O)c2cc(S(=O)(=O)N3CCCC3)cn2C)CC1
(37) N#Cc1c(C(F)(F)F)cc(-c2cccs2)nc1SCC(=O)Nc1cccc(Br)c1
entry no.,39,33,35,40,38,37
Cruzain noTriton,-10%,-1%,0%,-1%,8%,-15%
NS1 inh,-8%,x,4%,-4%,-8%,x
LASV entry inh,17%,-15%[46.1 µM],11%,6%,0%,1%[46.1 µM]
RE007 growth inh,-2%,x,12%,5%,-6%,x
SARS PLpro yeast,-6%,x,-4%,u,2%,x
Cruzain Triton,-1.0%,1.2%,0.1%,6.0%,7.6%,-5.3%
MARV entry inh,u,-5%[46.1 µM],19%[46.1 µM],-25%,19%,-20%[46.1 µM]
2A StopGo,-16%,-9%,-9%,0%,9%,0%

# (cont.)
(41) CC(C)(C)C(=O)NC1CCN(S(=O)(=O)c2ccccc2F)CC1
(42) COc1cc(C(C(=O)NC2CCCC2)N(C(=O)c2ccco2)c2ccccc2C(C)=O)cc(OC)c1OC (stereo unspecified)
(43) CCc1ccccc1NC(=O)C1NC(=O)CC1c1ccccc1 (stereo unspecified)
(44) CCOc1ccc(C(O)c2nccn2Cc2ccccc2)cc1 (stereo unspecified)
(45) CN(C)C(=O)Oc1ccc(OC(=O)c2ccccc2)cc1
(46) O=c1cc(O)c2sc3nc4c(c(C(F)(F)F)c3c2[nH]1)CCCCC4
(47) CCCN1CCC(NC2CCC(O)CC2)CC1 (stereo unspecified)
(48) Cc1ccc(S(=O)(=O)N2CC2(C)CCl)cc1 (stereo unspecified)
entry no.,41,42,43,44,45,46,47,48
Cruzain noTriton,16%,x,1%,0%,-7%,x,x,x
NS1 inh,-6%,-7%,-4%,3%,1%,13%,-6%,8%
LASV entry inh,-17%,u,x,25%,6%,20%,0%,x
RE007 growth inh,9%,-9%,14%,4%,-20%,-7%,5%,16%
SARS PLpro yeast,9%,18%,6%,7%,-2%,2%,-2%,0%
Cruzain Triton,3.1%,x,0.7%,-1.1%,-4.1%,x,x,x
MARV entry inh,-9%,u,x,6%,16%,-11%[46.1 µM],-7%,x
2A StopGo,-7%,-2%,0%,3%,x,-16%,-12%,-4%
